# A1 inhib – blocks A1 activity | actives 0.51% (n = 21,000) | AID 2241 | caspase activation, % (test concentration not listed) | MEF A1-2A-BIM cells, caspase-Glo luminescence, 3 h; percent of clofoctol signal, DMSO as zero;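 active = most replicate scores above 10, or exactly half above 10 with mean activity above 10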;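 also: effector caspase 3 and 7 activity cleaving a DEVD luciferin substrate; 50 nL library stock added to about 30 µL; numbers are from one replicate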
# BJeLR viab HTS – lowers viability of BJeLR cells. BJeLR fibroblasts viability, CellTiterGlo ATP luminescence, 48 h; HRASV12, hTERT and SV40 LT/ST transformed. viability loss activity score, % (test concentration not listed). actives 0.64% (n = 30,000). AID 2275; in the data active = viability loss activity score above about 50%; about a fifth of its hits are not listed in these tables;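 also: higher score means fewer live cells and less ATP luminescence; stock transfer was 50 or 100 nL into about 30 µL; 0% = vehicle wells and 100% = a reference killing control; one replicate is shown; the record names a cut of 85%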
# * marks the source's active call; other numbers are inactive results; . = not tested or not shown. Some of the compounds tested (hit frequency here may not be typical).
[1] Cc1ccccc1CSCC(=O)NCc1ccccc1
[2] C[C@@H]1CN([C@H](C)CO)C(=O)c2cc(NS(=O)(=O)c3cn(C)cn3)ccc2O[C@H]1CN(C)C(=O)Nc1ccc(C(F)(F)F)cc1
[3] S=C1NC2=C(CCc3ccccc32)C(c2ccccc2)N1 (stereo not drawn)
[4] Cc1cccc(CCN2CCC(C(=O)c3ccc(NS(C)(=O)=O)cc3)CC2)n1
[5] CNC[C@H]1Oc2ccc(NC(=O)CCCN(C)C)cc2C(=O)N([C@H](C)CO)C[C@H]1C
[6] Cc1ccc(OC(=O)COc2ccc3ccccc3c2)cc1
compound no.	1	2	3	4	5	6
A1 inhib	0.9	1.1	1.1	-1.1	-0.2	-0.8
BJeLR viab HTS	-1.4	-2.6	-5.4	22.2	0.4	2.8

[7] CC(C)NC(=O)Nc1cccc2c1O[C@H](CN(C)S(=O)(=O)c1cccs1)[C@@H](C)CN([C@H](C)CO)C2=O
[8] CNC(=S)NCc1ccc(-c2csnn2)cc1
[9] Cc1ccc(S(=O)(=O)Nc2cccc3c2O[C@@H](CN(C)S(=O)(=O)c2cn(C)cn2)[C@H](C)CN([C@H](C)CO)C3=O)cc1
[10] CC1N=C2c3ccccc3N=C(SCc3ccc(F)cc3)N2C1=O (stereo not drawn)
[11] C[C@H](CO)N1C[C@H](C)[C@H](CN(C)Cc2ccc(Oc3ccccc3)cc2)Oc2ccc(NS(C)(=O)=O)cc2C1=O
[12] CCSC1=N/C(=C\c2ccc(Br)s2)C(=O)S1
compound no.	7	8	9	10	11	12
A1 inhib	.	1.1	.	.	-0.3	-0.4
BJeLR viab HTS	-0.8	-3.3	2.3	-1.1	2.8	-0.2

[13] C[C@H]1CN([C@@H](C)CO)C(=O)c2cc(NC(=O)Nc3ccc(F)cc3)ccc2O[C@H]1CN(C)S(C)(=O)=O
[14] C=C1C(=O)O[C@@H]2/C=C(/COC(C)=O)CC/C=C(/CO)CC[C@@H]12
[15] COc1ccc(NC(=O)N(C)C[C@H]2Oc3c(NC(=O)NC4CCCCC4)cccc3C(=O)N([C@@H](C)CO)C[C@@H]2C)cc1
[16] O=C(c1ccco1)c1cn(CCOc2ccccc2Cl)c2ccccc12
[17] OCCn1c(SC2CCCCC2)nc2ccccc21
[18] Cc1nc(S(=O)(=O)NCCNc2ccc(-c3ccc(F)cc3)nn2)cn1C
compound no.	13	14	15	16	17	18
A1 inhib	-0.5	-0.2	.	.	0.2	0.5
BJeLR viab HTS	-5.3	-6.6	-1.5	-4.3	-6.4	4.3

[19] O=C(CSc1nc(SCC(=O)c2ccccc2)c2ccccc2n1)c1ccccc1
[20] C[C@@H]1CN([C@@H](C)CO)C(=O)c2cccc(NC(=O)NC3CCCCC3)c2O[C@H]1CN(C)C(=O)Nc1ccccc1
[21] NNC(=O)C1C2CCCCC21 (stereo not drawn)
[22] CCCCn1c(SCC(=O)NCc2ccccc2)nc2c(sc3ccccc32)c1=O
[23] C[C@H]1CN([C@@H](C)CO)C(=O)c2cc(NS(=O)(=O)c3cccs3)ccc2O[C@H]1CN(C)S(=O)(=O)c1ccccc1
[24] O=C(Cn1c(=O)c2ccccc2n2nncc12)Nc1ccc(Br)cc1
compound no.	19	20	21	22	23	24
A1 inhib	-0.3	.	0.3	0.4	-0.3	0.0
BJeLR viab HTS	-0.3	8.3	-3.5	1.8	4.3	0.5

# Whole records from above.
# CC1N=C2c3ccccc3N=C(SCc3ccc(F)cc3)N2C1=O (stereo not drawn) is listed as A1 inhib: .; BJeLR viab HTS: -1.1
# Cc1cccc(CCN2CCC(C(=O)c3ccc(NS(C)(=O)=O)cc3)CC2)n1 is listed as A1 inhib: -1.1; BJeLR viab HTS: 22.2
# C=C1C(=O)O[C@@H]2/C=C(/COC(C)=O)CC/C=C(/CO)CC[C@@H]12 is listed as A1 inhib: -0.2; BJeLR viab HTS: -6.6

# The listing continues:
[25] C[C@@H]1CN([C@@H](C)CO)C(=O)c2cccc(NC(=O)c3ccc(-c4nccs4)cc3)c2O[C@H]1CN(C)C(=O)Nc1ccccc1
[26] COC1CC(OC2C(C)OC(OC3C(C)OC(OC4C(C)OCC(OC5C(O)C(O[C@H]6CC[C@@]7(C)C(=CC[C@]8(O)C7CC(OC(=O)c7ccccc7)[C@@]7(C)[C@]8(O)CC[C@@]7(O)C(C)=O)C6)OC(CO)C5OC5OC(CO)C(O)C(O)C5O)C4OC)CC3OC)CC2OC)OC(C)C1O (stereo partly drawn)
[27] COc1ccc(NC(=S)NCCN(C2CCCCC2)C2CCCC2)cc1
[28] C[C@@H]1CN([C@@H](C)CO)C(=O)c2cccc(NS(=O)(=O)c3ccc(F)cc3)c2O[C@@H]1CN(C)S(=O)(=O)c1ccc(Cl)cc1
[29] C[C@@H]1CN([C@H](C)CO)C(=O)c2cc(NS(=O)(=O)c3ccccc3)ccc2O[C@@H]1CN(C)S(=O)(=O)c1cn(C)cn1
[30] Cc1ccc(NC2(c3nnnn3CCOC(=O)Nc3ccc(Cl)cc3)CCCCC2)cc1
compound no.	25	26	27	28	29	30
A1 inhib	.	0.5	0.2	.	0.1	0.5
BJeLR viab HTS	3.8	32.0	-0.1	-2.4	0.1	-1.6

[31] C[C@H]1CN([C@@H](C)CO)C(=O)c2cccc(NS(=O)(=O)c3cccs3)c2O[C@@H]1CN(C)Cc1ccc(Oc2ccccc2)cc1
[32] CCc1nn(-c2ccccc2)c2nc(-c3ccccc3O)c3cc(OC)c(OC)cc3c12
[33] Cc1nnc(Sc2nc(Nc3ccccc3)nc(Nc3ccccc3)n2)s1
[34] CC(C)CCNC(=O)C1CCN(C(=O)c2cc3sccc3n2Cc2ccc(F)cc2)CC1
[35] COc1ccc(C(=O)Nc2cccc(-c3nc4ccccc4o3)c2)cc1
[36] O=C(c1ccccc1)N1CC(=O)N(OCc2ccccc2)C1c1cccs1 (stereo not drawn)
compound no.	31	32	33	34	35	36
A1 inhib	.	-0.3	0.7	-0.2	.	0.7
BJeLR viab HTS	-0.9	0.2	4.5	3.5	-4.2	-3.4

[37] Cn1c(Cc2nc(-c3cnccn3)no2)nnc1SCc1ccc(Cl)cc1
[38] C[C@H]1CN([C@@H](C)CO)C(=O)c2cccc(NC(=O)c3ccncc3)c2O[C@H]1CN(C)S(=O)(=O)c1ccc(Cl)cc1
[39] COc1ccc(NC(=O)N(C)C[C@H]2Oc3ccc(NC(=O)Cn4cnnn4)cc3C(=O)N([C@@H](C)CO)C[C@H]2C)cc1
[40] COc1ccc(NC(=O)Nc2ccc3c(c2)C(=O)N([C@@H](C)CO)C[C@H](C)[C@@H](CN(C)C(=O)NC2CCCCC2)O3)cc1
[41] C=C(C)C(=O)O[C@H]1C[C@@]2(C)OC(=CC2=O)/C(COC(C)=O)=C\[C@H]2OC(=O)C(=C)C12 (stereo partly drawn)
[42] Cc1noc(C)c1NC(=O)Nc1cccc2c1O[C@H](CN(C)Cc1ccc(-c3ccccc3)cc1)[C@H](C)CN([C@@H](C)CO)C2=O
compound no.	37	38	39	40	41	42
A1 inhib	-0.1	.	0.9	-0.4	1.6	.
BJeLR viab HTS	4.0	1.4	-1.7	-0.4	61.3*	-7.3

[43] C[C@@H]1CN([C@H](C)CO)C(=O)c2cc(NC(=O)CCCN(C)C)ccc2O[C@@H]1CN(C)CC1CCCCC1
[44] CC1CCCCN1C(=O)c1oc(=O)c2ccccc2c1-c1ccccc1 (stereo not drawn)
[45] CCCn1cnc2c(oc3ccccc32)c1=O
[46] CCOC(=O)C1CCN(C(=O)CN2C(=O)c3ccccc3C2=O)CC1
[47] C/C(=C\CCC1(C)C2CC3C(C2)C31C)C(=O)O (stereo not drawn)
[48] COc1ccc(NC(=O)Nc2ccc3c(c2)C(=O)N([C@H](C)CO)C[C@@H](C)[C@H](CN(C)Cc2ccc(-c4ccccc4)cc2)O3)cc1
compound no.	43	44	45	46	47	48
A1 inhib	-0.3	.	-1.3	0.7	-0.1	0.8
BJeLR viab HTS	-3.1	-2.7	-1.3	-3.1	1.0	-3.1

[49] CC(C)CNc1ncnc2c1c(-c1ccccc1)cn2-c1ccccc1
[50] O=c1nc(Nc2ccc(OC(F)(F)F)cc2)oc2ccccc12
[51] CC(C)(C)c1csc(-c2sccc2COc2ccc(Cl)cc2)n1
[52] C/C(=C(/CCO)SSCC1CCCO1)N(C=O)Cc1cnc(C)nc1N (stereo not drawn)
[53] CC(=O)NC1CCCCc2sccc21 (stereo not drawn)
[54] C[C@H]1CN([C@@H](C)CO)C(=O)c2cc(NC(=O)Nc3cccc4ccccc34)ccc2O[C@@H]1CN(C)S(=O)(=O)c1cn(C)cn1
compound no.	49	50	51	52	53	54
A1 inhib	0.4	-3.3	-0.5	0.4	0.8	0.5
BJeLR viab HTS	-3.8	3.5	0.2	-2.6	-2.5	2.0

# Some values from the list:
# CC(=O)NC1CCCCc2sccc21 (stereo not drawn) in BJeLR viab HTS has -2.5
# CC(C)(C)c1csc(-c2sccc2COc2ccc(Cl)cc2)n1 in A1 inhib has -0.5
# C/C(=C(/CCO)SSCC1CCCO1)N(C=O)Cc1cnc(C)nc1N (stereo not drawn) in A1 inhib has 0.4
# CC(C)CNc1ncnc2c1c(-c1ccccc1)cn2-c1ccccc1 in A1 inhib has 0.4
# O=c1nc(Nc2ccc(OC(F)(F)F)cc2)oc2ccccc12 in A1 inhib has -3.3
# C[C@H]1CN([C@@H](C)CO)C(=O)c2cc(NC(=O)Nc3cccc4ccccc34)ccc2O[C@@H]1CN(C)S(=O)(=O)c1cn(C)cn1 in A1 inhib has 0.5

# Next part.
[55] Cc1ccc(/C(C#N)=C/c2ccc(N(C)C)cc2)cc1
[56] C[C@@H]1CN([C@H](C)CO)C(=O)c2cc(NC(=O)Cn3cnnn3)ccc2O[C@@H]1CN(C)Cc1ccncc1
[57] C[C@H](CO)N1C[C@H](C)[C@@H](CN(C)C(=O)NC2CCCCC2)Oc2c(cccc2N(C)C)C1=O
[58] CNC[C@@H]1Oc2c(NC(=O)Nc3ccc(OC)cc3)cccc2C(=O)N([C@@H](C)CO)C[C@H]1C
[59] COc1ccccc1Nc1nc(N)nc(CN2CCC(C)CC2)n1
[60] O=c1cc(CSc2ccc(Cl)cc2)nc(N2CCN(Cc3ccc4c(c3)OCO4)CC2)[nH]1
compound no.	55	56	57	58	59	60
A1 inhib	-5.8	-0.1	.	.	.	0.1
BJeLR viab HTS	26.7	-0.4	-1.6	-2.9	-3.1	-2.8

# Quoted at random: two records from the list
[56] C[C@@H]1CN([C@H](C)CO)C(=O)c2cc(NC(=O)Cn3cnnn3)ccc2O[C@@H]1CN(C)Cc1ccncc1
[59] COc1ccccc1Nc1nc(N)nc(CN2CCC(C)CC2)n1
compound no.	56	59
A1 inhib	-0.1	.
BJeLR viab HTS	-0.4	-3.1

# More compounds follow:
[61] COc1cccc(/C(O)=C\c2nc3ccc(C(=O)Nc4cccc(C)c4)cc3[nH]c2=O)c1
[62] COc1ccc(-c2nn(-c3ccccc3)cc2C=C2C(=O)CC(C)(C)CC2=O)cc1
[63] O=C(CSc1nc2ccccc2s1)Nc1ccncc1
[64] S=C(c1nc2ccccc2[nH]1)N1CCOCC1
[65] Cc1noc(C)c1NC(=O)Nc1cccc2c1O[C@H](CN(C)Cc1ccc(C(F)(F)F)cc1)[C@H](C)CN([C@H](C)CO)C2=O
[66] COc1ccc2nc(C)cc(N3CCOCC3)c2c1
compound no.	61	62	63	64	65	66
A1 inhib	.	.	-1.3	0.0	.	-0.9
BJeLR viab HTS	11.8	-8.2	2.1	1.5	-3.3	2.4

[67] C[C@H](CO)N1C[C@H](C)[C@@H](CN(C)Cc2ccc(Oc3ccccc3)cc2)Oc2ccc(NS(=O)(=O)c3ccc(Cl)cc3)cc2C1=O
[68] CCOC(=O)c1c(NC(=S)Nc2cc(C)nn2-c2ccccc2)sc(C)c1C
[69] C[C@H]1CN([C@@H](C)CO)C(=O)c2cccc(NC(=O)Nc3ccccc3)c2O[C@@H]1CN(C)Cc1ccncc1
[70] Cc1nc(SCCOc2ccccc2)sc1C(=O)Nc1ccccc1
[71] COc1ccc(NC(=O)Nc2ccc3c(c2)C(=O)N([C@H](C)CO)C[C@@H](C)[C@H](CN(C)Cc2ccccc2)O3)cc1
[72] S=c1[nH][n+]2c(-c3ccccc3)cc(-c3ccccc3)nc2s1
compound no.	67	68	69	70	71	72
A1 inhib	0.6	0.0	.	0.1	-0.6	-0.6
BJeLR viab HTS	-0.3	0.3	0.6	-2.3	3.0	1.9

[73] Cc1ccc(S(=O)(=O)Nc2ccc3c(c2)C(=O)N([C@@H](C)CO)C[C@H](C)[C@@H](CN(C)Cc2ccc(C(F)(F)F)cc2)O3)cc1
[74] COc1ccc(S(=O)(=O)Nc2ccc3c(c2)C(=O)N([C@@H](C)CO)C[C@H](C)[C@H](CN(C)C(=O)Nc2ccc(F)cc2)O3)cc1
[75] C[C@@H]1CN([C@@H](C)CO)C(=O)c2cc(NC(=O)Nc3ccc4c(c3)OCO4)ccc2O[C@@H]1CN(C)C
[76] c1ccc2sc(NC3=NCN(C4CCCCCC4)CN3)nc2c1
[77] O=C(CCc1ccccc1)N1CCCN(C(=O)CCc2ccccc2)CC1
[78] Cc1cccc(Oc2cc(C)nc3ccc(C)cc23)c1
[79] O=C(O)c1[nH]c2ccccc2c1CNC1CCCC1
compound no.	73	74	75	76	77	78	79
A1 inhib	-0.8	0.2	0.6	-1.2	0.9	1.8	.
BJeLR viab HTS	0.1	0.7	-2.2	5.5	-1.9	5.8	-7.0
